Screens (PubChem BioAssay)
Calb biofilm kill – mixtures killing C. albicans biofilm; C. albicans biofilm persisters + clotrimazole, fluorescence viability; primary screen in compound mixtures of four per well; inhibition, % at 7.6 µM; hit rate 0.02% among 120,000; AID 1242;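 active = inhibition above 30.3% in the primary screen of four-compound pools, then above 30% when the compound was retested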;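 also: compounds exposed to preformed 24 h biofilms for 48 h; the number belongs to the whole pool; some results filed as inactive read as strong as hits; inactives centre near 12; 0% = biofilm with clotrimazole alone and 100% = kill control; retested singly at about 60 µM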
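System: C. albicans CAF4-2 wild-type biofilms; Medium: RPMI/MOPS medium, pH 7.0; Reagent: Clotrimazole, 50 µg/mL; Times: biofilm formation 24 h, compound exposure 48 h, 37 °C; Detection: 2-h Alamar Blue fluorescence, 535/590 nm excitation/emission; Evaluation: percent inhibition of biofilm viability.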
The depositor's hits bear a star; & = joins results of further samples.

SMILES | Calb biofilm kill
CC(C)CNC(=S)N(Cc1ccco1)Cc1cc2cc3c(cc2[nH]c1=O)OCCO3 | 4
CC12CCC(C/C1=N/O)C2(C)C (stereo unspecified) | 20
C=CCn1c(COc2ccccc2F)nnc1SCCN1C(=O)c2ccccc2C1=O | 9
Cc1ccc(/C=N/n2cc(-c3ccccc3)[nH]c2=S)s1 | 14
CCOc1ccc(N2C(=O)/C(=C\c3ccc(OC)c(O)c3)S(=O)(=O)C2c2cccc([N+](=O)[O-])c2)cc1 (stereo unspecified) | 8
O=S1(=O)N=C(N/N=C/c2ccc(Br)o2)c2ccccc21 | 8
O=C(Nc1cccc(OCC(=O)N2CCOCC2)c1)c1cccc([N+](=O)[O-])c1 | 32
COc1ccccc1/C=C/C(=O)NCC(=O)N/N=C/c1ccccc1 | 15
CCOC(=O)c1c(C)oc2cc(Br)c(OCC(N)=O)cc12 | -6
Cc1ccc2sc(NNC(=O)C3COc4ccccc4O3)nc2c1C (stereo unspecified) | 14
COc1ccc(-n2c(=O)/c(=C\c3cccs3)s/c2=C(/C#N)C(=O)NCCN2CCOCC2)cc1 | 6
COC(=O)c1cccc(NC(=O)Cc2ccccc2[N+](=O)[O-])c1C | 7
COc1ccc(-c2cccc(C3CC=CC4C3C(=O)N(Cc3ccccc3)C4c3cc(C)ccc3F)c2)cc1 (stereo unspecified) | 15
O=C(CSc1nc(-c2ccco2)cc(C(F)(F)F)n1)NN1CCOCC1 | 8
Cc1cc(=O)oc2cc(Oc3ccc([N+](=O)[O-])cc3[N+](=O)[O-])ccc12 | 14
O=C1N=C2N(CCN3CCCCC3)c3ccccc3N2/C1=C\c1ccc([N+](=O)[O-])o1 | 11
O=C(Cc1ccccc1)Nc1cccc(N2C(=O)C=CC2=O)c1 | -9
CC(=O)Nc1ccc(S(=O)(=O)NNC(=O)CCC(=O)Nc2cc(C)ccc2C)cc1 | 13
CCOC(=O)c1ccc(NC(=O)c2cc(OC)c(OC)c(OC)c2Br)cc1 | 13
CCc1ccc(C2C3=C(CCCC3=O)OC3=C2C(=O)CCC3)cc1 | 12
COC(=O)c1sc(-c2ccccc2)cc1NC(C)=O | 17
O=C(Cn1c(=O)oc2cccnc21)Nc1ccc(C(F)(F)F)cc1 | 6
c1ccc(Nc2cccc(Nc3ccccc3)c2)cc1 | 16
C=CCn1cccc(C(=O)Nc2cc(OC)ccc2OC)c1=O | 16
Cc1ccc(C(=O)C2=C(O)C(=O)N(c3ncccn3)C2c2ccc(Br)cc2)o1 (stereo unspecified) | 29

Following part.
SMILES | Calb biofilm kill
Cc1cc(NC(=O)CCS(=O)(=O)c2nc(-c3ccccc3)cc(C(F)(F)F)n2)no1 | 11
Nc1nc(SCC(=O)NCc2ccc(F)cc2)[nH]c(=O)c1NC(=O)c1ccc(Cl)cc1 | 14
Cc1ccc(Nc2ccc(C(N)=O)cc2[N+](=O)[O-])cc1 | 13
COC(=O)c1ccc(NC(=O)CN(C)Cc2cccc(F)c2)cc1 | 13
CCc1cccc(OCCn2ccnc2)c1 | 5
S=c1[nH]ncn1NCc1ccc(Cl)cc1Cl | 15
COC(=O)c1cc([N+](=O)[O-])c(-n2cncn2)c([N+](=O)[O-])c1 | 22
O=C(CNc1cccc2ccccc12)N/N=C/C=C/c1ccco1 | 12
O=C(Nc1ccc(Br)cn1)c1ccc([N+](=O)[O-])cc1Cl | 8
COc1cccc(-n2nc3c(-n4ncc(C#N)c4N)nnc(C)c3c2C)c1 | 4
Cc1cccc(C)c1NC(=O)COC(=O)CCc1ccc(S(=O)(=O)N2CCCCC2)cc1 | 10
Fc1cccc(/C=N/Nc2ncnc3nc[nH]c23)c1 | -1
Cc1ccc(S(=O)(=O)Nc2ccc3c(c2)CCC3)cc1 | 2
S=c1[nH]ccn1-c1c(Cl)cccc1Cl | 14
Cc1c(C(=O)N2CCN(c3cccc(Cl)c3)CC2)cccc1[N+](=O)[O-] | 13
COCC(=O)N/N=C/c1c(C)[nH]n(-c2ccccc2)c1=O | 10
COc1ccc(NS(=O)(=O)c2ccc(Oc3cccc(C(=O)O)c3)cc2)cc1 | 18
CN(C)S(=O)(=O)c1cccc(NC(=S)NCc2ccc3c(c2)OCO3)c1 | 7
COCCCN1C(=O)c2ccc(C(=O)OCC(=O)NCCc3ccccc3)cc2C1=O | 7
Cc1cccc(NC(=O)c2ccc([N+](=O)[O-])cc2Cl)n1 | 14
COc1ccc(-c2csc(Nc3ccc(C)cn3)n2)cc1OC | 7
CCOc1ccc2oc(C(=O)O)c(C)c2c1 | 18
Cc1c(Cl)cnc(NC(=O)COC(=O)c2ccc3c(c2)OCO3)c1Cl | 9
COc1cc(/C=C/C(=O)N2C(=O)c3cccc(N)c3C2=O)cc(OC)c1OC | 11
O=C(NCc1ccccn1)[C@H]1C[C@@H]1[C@H](NP(=O)(c1ccccc1)c1ccccc1)c1ccccc1 | -1

Filtered by structure: the entries above containing a cyano group.
SMILES | Calb biofilm kill
COc1ccc(-n2c(=O)/c(=C\c3cccs3)s/c2=C(/C#N)C(=O)NCCN2CCOCC2)cc1 | 6
COc1cccc(-n2nc3c(-n4ncc(C#N)c4N)nnc(C)c3c2C)c1 | 4

Next part.
SMILES | Calb biofilm kill
COC(=O)c1ccccc1NC(=S)N(C)C | 19
CCn1nc(C)c(/C=N/NC(=O)Cn2nc(C)cc2C)c1C | -7
CCN(CC)S(=O)(=O)c1ccc(N2CCOCC2)c(NC(=O)C2CCCO2)c1 (stereo unspecified) | 16
O=C(CSc1n[nH]c(=O)[nH]c1=O)c1cccc([N+](=O)[O-])c1 | 18
Cc1ccc(S(=O)(=O)N2CCN(CC(=O)Nc3ccc([N+](=O)[O-])cc3)CC2)cc1C | 5
Cc1ccc2cc(/C=N/Nc3ccc(C(=O)O)cc3)c(Cl)nc2c1 | 2
O=C(Nc1ccccc1-c1ccccc1)c1cccc(C(F)(F)F)c1 | 12
CCCC(C)c1nnc(NC(=O)C(=O)OCC)s1 (stereo unspecified) | 8
CC(C)(C)NC(=O)COc1ccccc1C#N | 11
CN(C)/C=N/c1cc(=O)[nH]c(=O)n1CC1CC1 | 12
CC1Cc2nc(SCC(N)=O)n(Cc3ccccc3)c(=O)c2S1 (stereo unspecified) | 7
Cc1cccc(N2CCN(C(=O)CCN3C(=S)NC(C)(C)CC3C)CC2)c1C (stereo unspecified) | -7
Cn1c(-c2ccccc2[N+](=O)[O-])[n+](C)c2ccccc21 | 31
O=C1CCCN1CCCN=c1c([N+](=O)[O-])nn(-c2ccc(Cl)cc2)n1O | 40
COc1ccc(Br)cc1/C=N/NC(=O)C(c1ccncc1)N1CCOCC1 (stereo unspecified) | 18
O=S1(=O)CCN(Cc2ccccc2C(F)(F)F)CC1 | 16
CC(=O)NC(c1cccc([N+](=O)[O-])c1)c1c(OC(C)=O)ccc2ccccc12 (stereo unspecified) | 16
Cc1ccccc1-c1nc(CN(Cc2c(C)nn(C)c2C)C2CC2)c(C)o1 | -6
CCCCc1n[nH]c(=S)n1Cc1ccccc1 | 10
O=S(=O)(NCc1ccccc1)c1ccc(F)cc1Br | 12
O=C1N(c2ccccc2)C[C@@H]2C[C@@H](c3cccs3)N3CCC[C@@]123 | 6
COc1ccc(C2=NOC(C(=O)Nc3cccnc3Cl)C2)cc1 (stereo unspecified) | 6
Cc1cnc(N2C(=O)c3ccc([N+](=O)[O-])cc3C2=O)s1 | 21
S=c1[nH]c(-c2ccccc2)cn1/N=C/c1ccncc1 | 17
COc1ccc(/C=N/NC(=O)c2cccc(NC(=O)c3ccccc3)c2)c(C(=O)O)c1OC | 10

Among those listed so far, these have a thiophene ring, fused or not.
SMILES | Calb biofilm kill
Cc1ccc(/C=N/n2cc(-c3ccccc3)[nH]c2=S)s1 | 14
COc1ccc(-n2c(=O)/c(=C\c3cccs3)s/c2=C(/C#N)C(=O)NCCN2CCOCC2)cc1 | 6
COC(=O)c1sc(-c2ccccc2)cc1NC(C)=O | 17
O=C1N(c2ccccc2)C[C@@H]2C[C@@H](c3cccs3)N3CCC[C@@]123 | 6

Following part.
SMILES | Calb biofilm kill
Cc1ccc(NC(=O)Cn2c3ccc(F)cc3c3nc4n(c(=O)c32)CCS4)cc1F | 18
COc1ccccc1/C=N\Nc1cc(C)nc(-n2nc(C)cc2C)n1 | 7
CCn1c(NC(=O)C(C)C)c2ccccc2nc1=O | 11
O=C(Nc1ccc(Cl)c(S(=O)(=O)N2CCOCC2)c1)c1ccc(OCC2CCCO2)cc1 (stereo unspecified) | 15
CNC(=O)COC(=O)/C=C/c1c(C)nn(-c2ccccc2)c1C | 5
COCCn1c(C)cc(C(=O)CSc2nc3ccccc3c(=O)n2Cc2ccco2)c1C | 14
COC(=O)N/N=C/c1ccc([N+](=O)[O-])o1 | 11
O=c1[nH][nH]cc1C=Nc1ccccc1Cl | 9
COc1nsnc1NS(=O)(=O)c1ccc(NC(=S)NC(=O)c2ccncc2)cc1 | 17
O=C(/C=C/c1ccc(F)cc1)Nc1cc(S(=O)(=O)N2CCOCC2)ccc1N1CCCC1 | 7
O=C(CSc1nc2c(cnn2-c2ccc(F)cc2)c(=O)[nH]1)Nc1nccs1 | 7
C/C(Cl)=C\COc1cc(C)nc2c(Br)cccc12 | 20
O=C(O)c1ccccc1C(=O)c1ccc(N2CCCC2)c([N+](=O)[O-])c1 | -2
CC(C)COc1ncnc2c1sc1nc3c(cc12)COC(C)(C)C3 | 27
COc1ccc(C2C(C(C)=O)=C(O)C(=O)N2C)c(OC)c1 (stereo unspecified) | 8
O=C(COc1cccc(F)c1)N[C@@H](Cc1ccccc1)c1nc2ccccc2[nH]1 | 13
O=S(=O)(NCc1csc(-c2cccs2)n1)c1ccc(Cl)cc1 | 22
COc1ccccc1Cn1[nH]nnc1=S | 19
Cc1nn(Cc2ccccc2)c(C)c1N | -3
COc1ccc(/C=C/C(=O)N(Cc2ccccc2)c2ccccn2)cc1OC | 10
O=C(N/N=C/c1cccc([N+](=O)[O-])c1)C1CC(=O)N(c2ccc(Br)cc2)C1 (stereo unspecified) | 17
COCCOC(=O)C1=C(C)NC(=O)NC1c1c(Cl)nc2c(C)cccn2c1=O (stereo unspecified) | 10
CC(=O)Nc1ccc(C(=O)NNC(=O)c2cccs2)cc1 | -13
CCOc1ccc(C(=O)NC(=S)Nc2ccc(N3CCC(C)CC3)cc2)cc1[N+](=O)[O-] | 1
COc1cc2c(cc1OC)CN(C(=O)c1sccc1C)CC2 | 24

Structures listed so far with a COOH group (five):
SMILES | Calb biofilm kill
COc1ccc(NS(=O)(=O)c2ccc(Oc3cccc(C(=O)O)c3)cc2)cc1 | 18
CCOc1ccc2oc(C(=O)O)c(C)c2c1 | 18
Cc1ccc2cc(/C=N/Nc3ccc(C(=O)O)cc3)c(Cl)nc2c1 | 2
COc1ccc(/C=N/NC(=O)c2cccc(NC(=O)c3ccccc3)c2)c(C(=O)O)c1OC | 10
O=C(O)c1ccccc1C(=O)c1ccc(N2CCCC2)c([N+](=O)[O-])c1 | -2

(cont.)
SMILES | Calb biofilm kill
COc1ccc2c(c1)[nH]c1c(=O)n(N)cnc12 | 19
COc1cc(NC(=O)Cn2cnc3sc(C)c(S(=O)(=O)N4CCN(C)CC4)c3c2=O)cc(OC)c1OC | 11
Cc1occc1C(=O)N/N=C/c1ccc(Br)s1 | 9
O=C(C1=C[C@@H](c2coc3ccccc3c2=O)C[C@@H](OCCCCO)O1)N1CCOCC1 | -2
COc1ccc(CN(C(=O)c2cccs2)c2ccccc2)cc1 | 2
Cc1[nH]ncc1N=Cc1ccc([N+](=O)[O-])cc1 | 4
CNc1cc([N+](=O)[O-])ccc1OCc1ccccc1 | 26
N/C(Cc1ccc([N+](=O)[O-])cc1)=N\OC(=O)c1ccccc1Br | 12
COc1ccc2[nH]c(C)c(CCNC(=S)Nc3ccccc3OC)c2c1 | 15
CNC(=S)N=Nc1c(O)[nH]c2ccccc12 | 8
CCOC(=O)c1nn(-c2ccc(Cl)cc2)c2nnc(Cc3ccc(C)cc3)c(=O)n12 | -14
COc1ccc(CCN=C(N)NS(=O)(=O)c2ccc(C)cc2)cc1OC | 17
S=c1[nH]c2cc3ccccc3cc2[nH]1 | 8&15
O=c1[nH]c2ccc(NC(=S)NCc3ccccc3)cc2[nH]1 | 10
O=C(c1ccccc1[N+](=O)[O-])N1CCc2ccccc2C1 | 7
Cc1ccc2c(c1)C(=O)CC1(CCCCCC1)O2 | 9
CC(=O)Nc1ccc(S(=O)(=O)Nc2ccc(-c3ccc4nnc(C)n4n3)cc2)cc1 | 17
Cc1cc(=O)oc(C)c1C(=O)Nc1ccc(F)cc1 | 8
CC(C)C(=O)n1nc(-c2cccnc2)nc1NCc1ccc(F)cc1 | 10
O=C(N/N=C/c1ccccn1)c1cc(-c2ccccc2)nc2ccccc12 | 8
Cc1ccc(N2CC(C(=O)N/N=C/c3sccc3C)CC2=O)cc1 (stereo unspecified) | 9
O=c1cc2oc3cc(O)c(O)cc3c(-c3ccccc3O)c-2cc1O | 23
CC(C)(C)c1ccc(OC(=O)CN2C(=O)C3C4CCC(C4)C3C2=O)cc1 (stereo unspecified) | 9
CCCOC(=O)CCCCCCCCC(O)CN1CCCCC1 (stereo unspecified) | 7
COCCNC(=O)c1c(C)cc(C)cc1C | 2

Remaining list, next part:
SMILES | Calb biofilm kill
Cc1ccc(NC(=O)NN(C)c2c(Cl)c(Cl)nn2C)cc1 | 5
CCOC(=O)C1(Cc2ccccc2C(F)(F)F)CCN(C(C)COC)CC1 (stereo unspecified) | -3
COc1cc(NC(=O)CSCC(=O)Nc2cc(OC)cc(OC)c2)cc(OC)c1 | 57
CCOc1ccc(NC(=O)CSc2nnc(C(C)C)n2CC)cc1 | 8
COc1cc(/C=C/C(=O)OCC(=O)c2c(N)n(C)c(=O)n(C)c2=O)ccc1OCC#N | 14
Cc1ccc(C(=O)Nc2ccc(F)cc2)o1 | 16
Cc1nn(C(=O)c2nn(C)cc2[N+](=O)[O-])c(C)c1Br | 7
Cc1cn2c(nc(=O)c3cccnc32)s1 | 16
O=C(Cc1ccc(F)cc1)N/N=C/c1ccccn1 | 16
O=C(Nc1ccccn1)C1(c2cccs2)CCOCC1 | 4

This is a subset; the hit share may differ from the screen's.
